Marburg entry inh = Marburg virus entry inhibition; Marburg virus pseudotyped entry inhibition, cell reporter; control for the full effect not named in the record; about a third of the inactives were read at about 46 µM; 300,000 tested, 1.8% active; AID 540276; Potency, µM (titrated, usually from 37.8 µM), inactives show top-dose activity change, negative = inhibition, hits mostly inhibitors; active = well fitted inhibition curve with a large enough effect; inconclusive = small, poorly fitted or top-dose-only effect, or effect the other way; inactive = flat fitted curve, though single readings scatter; tested in HEK293 cells; about a fifth of its hits are not listed in these tables; also: % is scaled to controls: 0 for no effect and ±100 for the full control effect; luciferase read-out
Cruzain noTriton = inhibitors of Trypanosoma cruzi cruzain without detergent. P25779. purified cruzain, Z-FR-AMC fluorescence, no detergent. 200,000 tested, 2.3% active. Potency, µM, for inactives: max response, negative = inhibition, most hits filed as inhibitors;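 also: plate controls were enzyme without inhibitor for no effect and buffer without enzyme for full effect; nearly all actives have a fitted effect of over 40% in size; top concentration of the series not given in the record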
Target sequence (P25779 123-467 limits assumed): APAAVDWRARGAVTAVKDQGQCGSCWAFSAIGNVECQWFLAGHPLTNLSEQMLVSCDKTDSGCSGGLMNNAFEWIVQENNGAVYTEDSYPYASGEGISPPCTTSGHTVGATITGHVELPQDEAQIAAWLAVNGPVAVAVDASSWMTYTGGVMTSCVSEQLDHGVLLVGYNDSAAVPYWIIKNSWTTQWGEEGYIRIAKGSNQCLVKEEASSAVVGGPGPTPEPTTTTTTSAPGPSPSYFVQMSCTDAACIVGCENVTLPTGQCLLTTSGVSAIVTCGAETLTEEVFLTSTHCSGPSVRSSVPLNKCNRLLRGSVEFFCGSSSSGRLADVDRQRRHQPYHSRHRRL
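Purified cruzain at 1.5 nM, pre-incubated 15 min with compound at room temperature in 100 mM sodium acetate pH 5.5, 5 mM DTT, 0.00005% Triton X-100. Reaction started with 2 uM Z-FR-AMC; AMC fluorescence increase over 60 s gives rate.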
NS1 function inh = blocks influenza NS1 protein function | S. cerevisiae slowed by influenza A NS1, growth recovery by OD600 | Potency, µM (doses to about 46.1 µM), for the others: at the highest dose activity, positive = more growth | 270,000 tested, 0.4% active | AID 2326; active means well fitted rising curve with a large enough effect; inconclusive means small, poorly fitted or top-dose-only effect; inactive means no such curve, though single readings can be large or run the other way; also: nearly all actives have a fitted effect of over 50% in size
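Recovery from NS1-induced slow growth read by OD600 in budding yeast switched to galactose assay medium (pH 6.0, -URA) at 1:100 dilution. Compound 23 nl per well; the matching strain lacking NS1 serves as control.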
LASV entry inh = inhibitors of Lassa virus binding or cell entry; Potency, µM (highest dose often 37.9 µM), inactives show at the top dose activity change, negative = inhibition, actives largely listed as inhibitors; 300,000 tested, 1.2% active; AID 540256; Lassa virus pseudotype entry inhibition, cell reporter; control for the full effect not named in the record; active means well fitted inhibition curve with a large enough effect; inconclusive means small, poorly fitted or top-dose-only effect, or effect the other way; inactive means flat fitted curve, though single readings scatter; tested in HEK293 cells; also: % is scaled to controls: 0 for no effect and ±100 for the full control effect; nearly all actives have a fitted effect of over 50% in size; luciferase read-out
StopGo reporter = FMDV 2A StopGo reporter, luciferase signal; human cells with a luciferase reporter of 2A StopGo recoding; control for the full effect not named in the record; Potency, µM (titrated, usually from 57.9 µM), for the others: top-dose signal change, negative = less light; 410,000 tested, 1.2% active; AID 1159524; active = well fitted falling curve with a large enough effect; inconclusive = small, poorly fitted or top-dose-only effect; inactive = no such curve, though single readings can be large or run the other way; tested in HEK293T cells; also: % is scaled to controls: 0 for no effect and ±100 for the full control effect; nearly all actives have a fitted effect of over 45% in size; luciferase light after 4 h
SARS PLpro yeast = blocks SARS-CoV papain-like protease in a yeast assay; S. cerevisiae expressing SARS-CoV PLpro, growth rescue; control for the full effect not named in the record; Potency, µM (titrated, usually from 32.9 µM), for the others: at the highest dose activity, positive = growth rescue; 330,000 tested, 0.19% active; AID 485353; active means well fitted rising curve with a large enough effect; inconclusive means small, poorly fitted or top-dose-only effect; inactive means no such curve, though single readings can be large or run the other way; also: 0% is about no effect; nearly all actives have a fitted effect of over 55% in size; growth read by luminescence after 48 h
RE007 growth inh = less growth of the S. pombe RE007 Vpr strain. S. pombe RE007 Vpr strain, BacTiter-Glo ATP luminescence, 24 h; control for the full effect not named in the record. Potency, µM (titrated, usually from 92.2 µM), for the others: top-dose activity change, negative = less growth. 360,000 tested, 0.21% active; active = well fitted falling curve with a large enough effect; inconclusive = small, poorly fitted or top-dose-only effect; inactive = no such curve, though single readings can be large or run the other way;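 also: % is scaled to controls: 0 for no effect and ±100 for the full control effect; nearly all actives have a fitted effect of over 50% in size; the assay follows cell death caused by Vpr and the record does not say whether a fall means rescue or toxicity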
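Fission yeast RE007 carrying one integrated HIV-1 vpr copy, seeded at OD 0.01 in PMG+AL medium with 23 nL pinned compound. Grown 24 h at 30 degrees; viability read by BacTiter-Glo luminescence after 5 min.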
Cruzain Triton = cruzain (T. cruzi) inhibition with detergent; Potency, µM, without a hit: max response, negative = inhibition, actives largely listed as inhibitors; purified cruzain, Z-FR-AMC fluorescence, 0.01% Triton; P25779; 200,000 tested, 0.43% active;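 also: plate controls were neutral wells for no effect and buffer without enzyme for full effect; nearly all actives have a fitted effect of over 40% in size; top concentration of the series not given in the record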
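Detergent-containing arm of a paired screen for aggregation-based inhibition: 0.01% Triton X-100 present. Cruzain at 1.5 nM cleaved 2 uM Z-FR-AMC at pH 5.5 with 5 mM DTT; AMC fluorescence gain over 60 s measured activity.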
Numbers without * were called inactive; ? = inconclusive; / = no result given; & = joins results of further samples; [ ] = dose if it differs, or a comment. Unless noted, calls follow the shape of the dose curve; as a rule, active = well fitted curve in the direction sought with a large enough effect; inconclusive = small, poorly fitted or top-dose-only effect, or another doubt; inactive = no such curve, though single readings can be large; an effect the other way counts as inactive or inconclusive. Potency is read from the fitted curve at half-maximal effect. Compounds as they come; about 4.6% have a hit in one of these screens.

SMILES	Marburg entry inh	Cruzain noTriton	NS1 function inh	LASV entry inh	StopGo reporter	SARS PLpro yeast	RE007 growth inh	Cruzain Triton
O=C(CCc1nc(-c2ccccc2)no1)NCc1ccco1	6%	-6%	-14%	2%	2%	2%	4%	-0.9%
CCOc1ccc(-c2cc(C(=O)N3CCC(C)CC3)c3ccccc3n2)cc1	16%	/	/	30%	21%	/	14%	/
COc1ccc(N(C(=O)COc2ccc(F)cc2)S(=O)(=O)c2ccc(C)cc2)cc1	?	1%	4%	-10%	6%	-23%	/	-1.5%
CCOC(=O)c1cccc(NC(=O)Cn2ncc3c(=O)oc4ccccc4c32)c1	5%[46.1 µM]	-10%	/	7%[46.1 µM]	-21%	/	/	1.1%
O=C(Nc1ccc(N2CCN(C(=O)c3ccco3)CC2)cc1)c1cc(Br)ccc1Cl	10µM*	/	/	?	?	-3%	-5%	/
CCOC(=O)N1CCC(NC(=O)CSCc2nc(-c3cccc(OC)c3)oc2C)CC1	?	?	-8%	-9%	?	3%	3%	4.1%
Cc1cc(C)n(C(=O)CNc2ccc(C)c(C)c2)n1	-11%	2%	20%	14%	0%	2%	-14%	-5.0%
CCCCC12CN3CCN(CC(C3)/C1=N\NC(=O)Nc1ccccc1)C2	3%	0%	0%	4%	-5%	-7%	2%	-0.1%
O=C(NC1CCCCC1)NC1CCN(C(=S)NCc2ccco2)CC1	?	4%	-2%	14%	/	-2%	-19%	6.0%
O=C(C1=NN[C@@H]2C(=O)N(c3ccccc3C(F)(F)F)C(=O)[C@H]12)c1ccc2ccccc2n1	5%	9%	-7%	2%	-13%	6%	-1%	-5.5%
O=C(O)Cn1c(=S)sc2ccccc21	12%[46.1 µM]	/	7%	-17%	4%	0%	1%	/
COc1ccc(-c2cn[nH]c2-c2ccc(OC)cc2O)cc1	-20%[46.1 µM]	/	-34%	?	-18%	-6%	14%	/
CCc1ccc(C(=O)NNC(=O)C2CSC3(C)CCC(=O)N23)cc1 (stereo not given)	?	/	/	-20%	-17%	4%	32%	/
O=C(CN(C(=O)CNC(=O)c1ccco1)c1ccc2c(c1)OCCO2)NC1CCCCC1	?	/	1%	-22%[46.1 µM]	9%	0%	-7%	/
NCCSC1CC(=O)N(c2ccc(F)cc2)C1=O (stereo not given)	-12%	/	19%	10%	15%	-8%	-1%	/
O=C(NCCS(=O)(=O)N1CCCCCC1)c1ccccc1	?	/	/	17%[46.1 µM]	-12%	4%	16%	/
N#Cc1c(-n2cccc2C=O)sc2c1CCCC2	4%[46.1 µM]	/	/	4%	-16%	-6%	-6%	/
CC(OC(=O)c1ccc(NC(=O)CC#N)cc1)C(=O)NC(c1ccccc1)c1ccccc1 (stereo not given)	?	/	/	-18%	-3%	-1%	-5%	/
Cc1ccc(CNS(=O)(=O)/C=C/c2ccc3c(c2)OCO3)cc1	-5%	6%	6%	11%	20%	5%	-23%	-6.9%
COc1cccc(/C=C/C(=O)c2ccc(NC3=NCCCS3)cc2)c1	?	/	/	-4%[46.1 µM]	?	0%	-29%	/
COc1ccc(F)cc1CN1CCN(c2cc(C)nc3c4c(C)cc(C)nc4nn23)CC1	0%	-16%	-25%	/	/	16%	/	-15%
COc1ccccc1NC(=O)C(C)N(C)Cc1ccc(Cl)s1 (stereo not given)	-16%	/	-7%	?	-29%	-8%	-15%	/
COc1ccccc1NC(=O)c1c(Br)cnn1C	9%[46.1 µM]	/	-7%	-16%[46.1 µM]	-8%	0%	9%	/
C=CCc1cccc(/C=N/NC(=O)C(C)Nc2cccc(C)c2)c1O (stereo not given)	?	/	-21%	11µM*	-13%	?	12%	/
COc1ccc2c(c1)c(=O)oc1cc(OC(C(=O)O)c3ccccc3)ccc12 (stereo not given)	15%	/	5%	20%	5%	-1%	-17%	/
O=c1cc(-c2ccccc2)nc2n1Cc1ccccc1-2	1%	1%	-90%	?	15%	-7%	0%	-3.1%
Cc1cc(C)c2c(CN3CCN(C)CC3)cc(=O)oc2c1	?	-7%	-2%	-3%	6%	3%	-1%	2.9%
O=C(c1cccc([N+](=O)[O-])c1)N1CCN(c2cccc(Cl)c2)CC1	-7%	-2%	-4%	?	?	21%	-15%	-7.6%
Cc1[nH]n(-c2ccccc2)c(=S)c1C=Nc1cccc([N+](=O)[O-])c1	12%	-9%	5%	1%	-2%	6%	13%	-1.8%
Cn1c(=S)n(C)c2ccccc21	14%	/	-4%	-2%	1%	-3%	6%	/

2 compounds from above with just RE007 growth inh and SARS PLpro yeast.
SMILES,RE007 growth inh,SARS PLpro yeast
Cc1cc(C)c2c(CN3CCN(C)CC3)cc(=O)oc2c1,-1%,3%
O=C(c1cccc([N+](=O)[O-])c1)N1CCN(c2cccc(Cl)c2)CC1,-15%,21%

Further entries follow:
SMILES	Marburg entry inh	Cruzain noTriton	NS1 function inh	LASV entry inh	StopGo reporter	SARS PLpro yeast	RE007 growth inh	Cruzain Triton
C=C(C)C1CC=C(C)/C(=N/NC(=O)C2CC2c2ccccc2)C1 (stereo not given)	17%	/	/	?	-13%	1%	0%	/
CN(C(=O)c1ccc2c(c1)N(Cc1cccc(Cl)c1)C(=O)c1ccccc1S2(=O)=O)C1CCCCC1	/	5%	/	10µM*	-4%	/	/	-3.6%
CCOC(=O)C1CCN(C(=O)Cc2c(C(=O)O)[nH]c3ccccc23)CC1	3%	-8%	5%	-7%	-8%	-11%	24%	-1.6%
CCCc1c(C)nc(N2CCN(c3ccc(F)cc3)CC2)[nH]c1=O	/	/	13%	/	-4%	2%	-13%	/
Cc1noc(N)c1C(=O)Nc1ccc(C(C)(C)C)cc1	11%	-4%	-90%	-10%	38%[activator]	-7%	-28%	-3.7%
O=C(CSc1ncnc2scc(-c3ccccc3)c12)NCc1ccc2c(c1)OCO2	-16%	?	7%	0%	?	23%	-2%	0.4%
Fc1ccccc1CNCCC(Cc1ccccc1)c1ccc2c(c1)OCO2 (stereo not given)	?	8%	-32%	?	-11%	0%	4%	-5.0%
Cc1cc(C)cc(C(=O)NC(CC(N)=O)c2ccc(NC3CCCCCCCCCCC3)c([N+](=O)[O-])c2)c1 (stereo not given)	/	/	12%	/	-11%	0%	7%	/
N/C(=N\OC(=O)Nc1ccc(Cl)cc1)c1ncc(C(F)(F)F)cc1Cl	13%	-9%	-7%	-19%	22%	-4%	-8%	1.2%
O=C(Cn1nc(-c2ccc(Cl)cc2)ccc1=O)NCc1ccccc1Cl	/	5%	/	/	-6%	/	/	0.0%
O=C(CCc1nnc(CCc2c[nH]c3ccccc23)o1)NC1CCC1	/	/	-4%	/	32%[activator]	0%	-9%	/
COc1ccc(NC(=O)CN(C)CC(=O)Nc2ccc3c(c2)CCC3)cc1	?	/	/	-25%[46.1 µM]	4%	0%	2%	/
CC(=O)N1CCN(C(=O)c2cccc(S(=O)(=O)Nc3c(C)n(C)n(-c4ccccc4)c3=O)c2)CC1	9%	/	/	10%	-16%	2%	4%	/
CN(Cc1ccccc1)/C(=N/O)c1cccc(Cl)c1	/	/	-4%	/	-4%	-2%	6%	/
CC(C)OCCCNC(=O)C1CC(=O)N(CCc2ccccc2)C1 (stereo not given)	4%[46.1 µM]	/	2%	4%[46.1 µM]	-9%	-1%	-7%	/
COc1cccc(C2=NN(C(=O)c3ccco3)C(O)(C(F)(F)F)C2)c1 (stereo not given)	?	/	2%	-19%	-9%	-2%	4%	/
COc1ccc(N2CCN(CCCNC(=O)Nc3ccccc3Cl)CC2)cc1	?	5%	/	-2%[46.1 µM]	-17%	/	/	-3.4%
COc1cccc2nc3cc(C)c(C)cc3nc12	/	/	-59%	/	-23%	-11%	2.8µM*	/
CC(C)C1NC2(C(=O)c3ccccc3C2=O)C2C(=O)N(c3ccc(F)cc3)C(=O)C12 (stereo not given)	0%	-15%	11%	1%	-13%	-16%	0%	4.8%
O=C(O)Cc1csc(NC(=O)c2ccco2)n1	2%	-8%	7%	-3%	-1%	3%	-3%	-0.6%
CCn1cc(C(=O)NCCc2ccccc2)c(=O)c2cc(S(=O)(=O)N3CCCC3)ccc21	?	/	/	6%[46.1 µM]	-9%	0%	12%	/
CC(N1CCOC1=O)S(=O)(=O)c1ccccc1 (stereo not given)	-18%	1%	7%	0%	6%	11%	4%	-0.3%
COc1ccccc1NS(=O)(=O)c1cccc(C(=O)NCC2(N3CCCCC3)CCCCC2)c1	?	/	/	10%	-12%	/	3%	/
COc1cccc(CNc2ccc(C(=O)O)cc2)c1OCc1ccccc1	2%[46.1 µM]	/	2%	-2%[46.1 µM]	-1%	0%	-14%	/
CCOC(=O)c1ccc(-n2c(CN3CCC(O)CC3)nc3ccc([N+](=O)[O-])cc3c2=O)cc1	/	/	4%	/	2%	1%	-10%	/
COC(=O)CC1C(=O)NCCN1C(=O)c1ccc(S(=O)(=O)N2CCOCC2)cc1 (stereo not given)	4%[46.1 µM]	/	/	?	1%	0%	?	/
Cc1cccc(N2CCN(S(=O)(=O)c3ccc4oc(=O)c5ncn(C)c5c4c3)CC2)c1C	-12%[46.1 µM]	1%	/	16%[46.1 µM]	4%	/	/	-1.3%
O=C(CNC(=S)NC(=O)c1ccc(F)cc1)c1ccccc1	26%	-28%	-2%	9%	29%	17%	-5%	-3.6%
Nc1c(-c2ccc(Cl)cc2)nnn1-c1ccccc1	?	-10%	-10%	25%	48%[activator]	-12%	4%	-11%
O=C(CSc1ccc(Cl)cc1)Nc1cccc(-c2nc3ncccc3o2)c1	?	1%	-7%	?	14µM*	-1%	-2%	2.5%
CCOc1ccc(N(CC)C(=O)CCc2nc(-c3ccccc3F)no2)cc1	-25%[46.1 µM]	?	/	?	-19%	/	/	-5.5%
CC(=O)Nc1ccc(C(=O)Nc2nc(-c3ccccn3)cs2)cc1	/	/	14%	/	-15%	1%	?	/
COc1ccc(Nc2c(-c3ccco3)nc3cccc(C)n23)cc1	-37%&-37%[46.1 µM]	-17%	/	5%[46.1 µM]	0%&-18%	-8%	-8%	-12%

Screening results from PubChem.
